# BasE inh = inhibitors of Acinetobacter baumannii siderophore enzyme BasE; 0.1% of 84,000 active; AID 485350; inhibition, % (test concentration not listed); purified BasE, fluorescence polarization binding displacement;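 active = both replicates above 25% with normal brightness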;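 also: 0% = negative plate control signal and 100% = positive plate control signal; stock transfer was 100 nL into about 30 µL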
# KSHV LANA nucl = LANA-nucleosome interaction inhibition. FITC-LANA1-23 / chicken nucleosome fluorescence polarization; active compounds read low. z-score (concentration not given with the values). 0.3% of 51,000 active. AID 720717;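 active = both repeat wells score below -2 in polarization z-score versus plate sample wells, excluding overly bright wells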;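 also: 100 nL library stock added to about 30 µL; numbers are from one replicate; some results filed as inactive read as strong as hits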
#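 Assay system: purified chicken nucleosomes with FITC-labelled LANA N-terminal peptide (1-23) / Probe or stimulus: 50 nM FITC-LANA1-23 probe / Compound dosing: pin-transferred compound, 100 nL / Times: compound with peptide–nucleosome mix 10–45 min at room temperature / Technique: fluorescence polarization, 480 nm excitation, 535 nm parallel and perpendicular emission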
# Active calls of the source: *; x = not tested or not shown; & = joins results of further samples.
# Order of values – BasE inh | KSHV LANA nucl
O=C(N1CCCC1)C12CC3CC(CC(C3)C1)C2
  -0.4 | 0.87
O=C(O)CCCCCn1c(SCC(=O)c2ccc(O)c(O)c2)nc2ccsc2c1=O
  24 | -0.45
Cc1ccccc1N=C1C(=O)N(CN2CCC(C)CC2)c2ccccc21
  -3.0 | x
CN(C)S(=O)(=O)c1ccc(NC(=O)COc2ccccc2)cc1
  -1.6 | -0.73
Cc1cccc(N2C(=O)CSC23CCCCC3)c1
  -2.3 | 1.6
CC1CN(c2nc3ccccc3nc2C(C#N)C#N)CC(C)O1 (stereo not given)
  -1.3 | x
O=C1N(Cc2ccccc2)C(c2ccco2)C1(F)F (stereo not given)
  5.5 | x
Oc1cccc2cnccc12
  7.8 | 0.19
Cc1nn(-c2ccccc2)c2sc(C(=O)OC3CCCC3=O)cc12 (stereo not given)
  -2.6 | x
O=S(=O)(NCCN1CCCC1)c1ccc(Cl)cc1
  x | -1.4
Cc1cc(C=C2C(=O)c3ccccc3C2=O)c(C)n1C
  23 | -1.6
Cc1nn(-c2ccc(F)cc2)c(-n2cccc2)c1C(=O)NCCN1CCOCC1
  -1.2 | -0.22
O=C(O)c1cccc(N=NN2CCOCC2)c1
  2.2 | 0.43
Nc1nc(=S)[nH]c2c1C1(CCCC1)Cc1ccccc1-2
  -0.3 | 2.4
O=C(OCCOc1ccc(Br)cc1)c1ccc(Cl)nc1
  2.0 | x
Cc1ccc2c(c1)-c1c(ssc1=S)C(C)(C)N2C(=O)CN1CCOCC1
  -0.4 | 1.6
CCC(=O)N(CCN1C(=O)c2ccccc2C1=O)c1cccc(F)c1
  6.1 | x
CN(C)c1ccc(C(=S)N2CCN(C(N)=S)CC2)cc1
  2.0 | 0.96
CCNc1cc(NCC)c2noc3c2c1C(=O)c1ccccc1-3
  2.8 | -0.064
CN1C(C(=O)NC2CCCCC2)=CC(c2ccc(F)cc2)=NS1(=O)=O
  3.4 | 0.31
Cc1ccc(NC2=NC(C(=O)Nc3ccc(F)c(Cl)c3)CC(=O)N2)cc1 (stereo not given)
  -0.2 | -1.5
COc1ccc(OCC(=O)NC(=S)N2CCCc3ccccc32)cc1
  2.8 | x
Cc1cc(C(=O)NNc2c(Cl)cc(Cl)cc2Cl)nn1C
  0.9 | 2.1
CC(NC(=O)Nc1cccc2ccccc12)C1CCCO1 (stereo not given)
  -1.1 | -0.47
CN[C@@H]1[C@H](O[C@H]2[C@H](O[C@@H]3[C@@H](O)[C@H](O)[C@@H](N=C(N)N)[C@H](O)[C@H]3N=C(N)N)O[C@@H](C)[C@]2(O)CO)O[C@@H](CO)[C@H](O)[C@H]1O
  -1.2 | -1.4
O=C(N/N=C/c1ccc(OC(F)F)cc1)c1cc(-c2ccco2)nc2ccccc12
  -0.2 | x
CC(CCCC(C)(C)O)CC1OCC(C)O1 (stereo not given)
  -3.8 | 1.4
O=C(Cn1[nH]c(=O)c2ccccc2c1=O)N1CCc2ccccc2C1
  -0.8 | x
O=C(O)CCc1nc2cc3ccccc3cc2[nH]1
  x | -0.015
Cc1cc(Br)ccc1NC(=S)Nc1cccc(NC(=O)c2ccccc2O)c1
  2.2 | x

# Single records, as listed above.
# `Cc1nn(-c2ccc(F)cc2)c(-n2cccc2)c1C(=O)NCCN1CCOCC1` as listed: BasE inh = -1.2; KSHV LANA nucl = -0.22
# `CCC(=O)N(CCN1C(=O)c2ccccc2C1=O)c1cccc(F)c1` as listed: BasE inh = 6.1; KSHV LANA nucl = x
# `Cc1cccc(N2C(=O)CSC23CCCCC3)c1` as listed: BasE inh = -2.3; KSHV LANA nucl = 1.6

# Continuation.
# Order of values – BasE inh | KSHV LANA nucl
CCCn1c(SCc2nc(-c3cccs3)no2)nnc1-c1ccncc1
  -0.6 | 0.48
CC(C)(C)OC(=O)Nc1cccc(C(=O)OCC(=O)Nc2ccc(N3CCOCC3)cc2)c1
  1.5 | x
Cc1ccc(N2Cc3cc(C)c(C)cc3C2)cc1
  -1.5 | x
O=C(NCC1COc2ccccc2O1)c1cccc(S(=O)(=O)N2CCOCC2)c1 (stereo not given)
  1.6 | x
O=C(NCC(F)(F)F)c1ccc(S(=O)(=O)N2CCCc3ccccc32)cc1
  -0.6 | x
CC(C)CCN1NC2(CCCC(C)C2)NC1=S (stereo not given)
  4.3 | 0.058
O=C(CNC(=O)OCc1ccccc1)NC1CCCCCC1
  0.1 | 0.82
COc1cc(CN2CCN(c3ncccn3)CC2)ccc1O
  20 | -0.59
O=C1/C(=C/c2ccc(O)cc2)NC(=S)N1c1ccccc1
  2.5 | 0.34
Cc1cc(C)nc(Nc2ccc(Nc3ccccc3)cc2)n1
  -0.7 | 0.5
N#CCCN1C(=O)NC(Cc2ccccc2)(c2ccccc2)C1=O (stereo not given)
  -0.2 | x
C=CC1CCC(N(Cc2ccccc2)S(=O)(=O)c2ccc(C)cc2)C(O)C1 (stereo not given)
  0.4 | x
CCc1ccc(NC(=O)N2CCC(CN3CCc4ccccc4C3)CC2)cc1
  -1.7 | -0.84
CCc1nnc2c3ccccc3nc(NCc3cccnc3)n12
  0.3 | x
CCOC(=O)c1sc(NS(=O)(=O)c2ccccc2C(F)(F)F)cc1C
  0.1 | x
CCC(=O)Nc1ccc(Cl)c(NC(=O)c2cc3ccccc3o2)c1
  -0.2 | -0.89
COc1cccc(NC(=O)C2C3C=CC4(O3)C2C(=O)N(Cc2ccc3c(c2)OCO3)C4C(=O)NC2CCCCC2C)c1 (stereo not given)
  -1.4 | -0.65
COc1cccc(OC)c1C(=O)N1CCN(C(=O)COc2ccc(Cl)cc2)CC1
  1.8 | x
COc1cc(N=Cc2cccs2)c(OC)cc1Cl
  -1.2 | x
Cc1nnc2c3ccccc3nc(Nc3ccc(N4CCOCC4)cc3)n12
  2.1 | x
Cc1cc(-c2ccc(S(=O)(=O)Nc3ccccc3)s2)on1
  -0.2 | x
S=C1N2CCN=C2SC2=NCCN12
  2.6 | -0.6
CCOc1ccc(-n2c(=O)/c(=C\c3ccco3)s/c2=C(/C#N)C(=O)C(C)(C)C)cc1
  0.0 | x
CCCOC1(C(F)(F)F)NC(=O)N(Cc2ccccn2)C1=O (stereo not given)
  -0.8 | -1.3
O=C(NC(=O)C(F)(F)F)Nc1nncs1
  0.8 | x
CC(=O)Nc1ccccc1OCC(=O)NCC(F)(F)F
  2.1 | x
Cc1nc2ccc(S(=O)(=O)N(CC(=O)N3CCN(C)CC3)Cc3ccccc3)cc2s1
  0.3 | -0.52
Cc1ccc(NC(=O)C2CC(=O)N(CCc3ccc(Cl)cc3)C2)cc1 (stereo not given)
  x | -0.94
O=C(Cn1nc(-c2cccc(-n3cccc3)c2)oc1=O)N1CCCCC1
  0.7 | 0.3
CC(C)N1C(=O)/C(=C/c2cccc(Br)c2)SC1=S
  0.6 | x

# Next section
smiles | BasE inh | KSHV LANA nucl
O=c1[nH]c(O)c(C=NCc2ccc(Cl)cc2)c(=O)[nH]1 | -7.5 | 1.8
COc1ccc(OCCSc2nnc(CCNC(=O)c3ccc(OC)cc3)n2C)cc1 | 3.8 | 0.41
CC(=O)NCCSCc1c(F)cccc1Cl | -11 | -0.25
CCOC(=O)C1=C(CSc2nnc(-c3ccc(OC)cc3)o2)NC(=O)NC1C (stereo not given) | -2.1 | x
Fc1ccc(COC(CN2CCCCC2)CN2CCCCC2)cc1 | -3.1 | 0.22
Nc1nc(CC(=O)NN=C2CCCCCC2)cs1 | 0.5 | 0.71
COc1ccccc1-c1coc2cc(OCc3ccc(C)cc3)ccc2c1=O | 0.1 | x
CCOC(=O)c1ccc(C(=S)N2CCCC2)cc1 | -2.6 | x
S=C(NCCN1CCOCC1)NNc1c(Cl)cc(Cl)cc1Cl | 1.5 | x
O=C(Nc1ccccc1)Nc1nccs1 | 0.8 | x
O=c1ccc(-c2nc3c4c5c(sc4ncn3n2)CCCC5)n[nH]1 | 0.6 | -0.37
Cc1nc2c(cnn2-c2ccccc2)c(=O)n1-c1ccccc1 | -2.0 | 0.98
CC(O)c1ccc2ccccc2c1 (stereo not given) | 1.6 | x
COc1ccc(C(=O)c2cnc3ncccn23)cc1 | -2.3 | 0.62
Nc1nc(SCc2ccccc2)ns1 | -1.1 | 0.85
CN(C)c1ccc(NC(=S)NC2CCCCC2)cc1 | 4.4 | -0.64
CCOCc1nnc(NS(=O)(=O)c2ccc(Cl)cc2)s1 | 3.4 | 0.37
Cc1nnc(COC(=O)c2c3c(nc4ccccc24)CCC(C(C)(C)C)C3)o1 (stereo not given) | 0.3 | x
CCNc1ccc(C(=O)OCC)cc1NC(=O)Nc1ccc(F)cc1 | -1.0 | x
Cc1sc2nc(CN3CCCCC3)nc(N)c2c1C | -3.5 | x
C=CCNC(=O)CSc1nc2cc(C)cc(C)c2cc1C#N | -0.6 | 0.23
Cn1c(=O)c2c(nc3n2CC(C(C)(C)C)=NN3Cc2cccc3ccccc23)n(C)c1=O | 1.0 | 0.13
CCN1CCc2c(sc(-n3cccc3)c2CNC(=O)Nc2cc(Cl)ccc2C(=O)OC)C1 | 0.3 | 0.57
CCN1CCN(c2ncc(C(=O)OC)c3ccccc23)CC1 | 1.2 | -0.37
CC1(C)Oc2ccc(C(=O)N3CCCC3)cc2N(CC(=O)N2CCCCC2)C1=O | 1.0 | -0.038
CCCCNC(=O)NS(=O)(=O)c1ccc(C)cc1 | 0.6&-3.3 | 0.1&0.37&0.53&-0.67
CCc1ccccc1NC(=O)C1CCN(c2nn3cc(-c4ccc(C)cc4)nc3s2)CC1 | -1.5 | -0.47
CCOC(=O)c1cnn(-c2ccccc2)c1NC(=O)C(F)(F)F | -5.3 | -0.9
CCCc1[nH]nc2c1C(CCC)C(C#N)=C(N)O2 (stereo not given) | 0.0 | 0.098
CCOc1ccc(-n2c(-c3ccco3)nc3c(cnn3-c3ccc(C)cc3)c2=O)cc1 | -0.4 | -0.9
O=C(CSC1=NS(=O)(=O)c2ccccc2N1)N1CCCc2ccccc21 | 3.9 | -0.1
Cn1c2c(cc(C#N)c1=O)COC(C)(C)C2 | 0.1 | -0.65
CCC1(C)NC(C(=O)O)Cc2c1[nH]c1ccccc21 (stereo not given) | -0.5 | 0.48
CN1/C(=C\C(=O)COC(=O)c2cccc(S(=O)(=O)N3CCOCC3)c2)C(C)(C)c2ccccc21 | -2.7 | x
COc1cccc2c1Oc1ncccc1N(C(=O)CCC(=O)NC1CCCCC1)C2 | -1.6 | x
O=C(Cn1cnc2ccccc21)Nc1ccccc1 | 5.7 | -0.2
COc1cc(/C=C2\SC(=S)N(C3CCS(=O)(=O)C3)C2=O)cc(Br)c1O (stereo not given) | -4.1 | 1.2
Cc1ccc2cccc(I)c2n1 | 1.8 | -0.24
CN(C)C(CNC(=O)Cc1cccc(C(F)(F)F)c1)c1ccco1 (stereo not given) | -5.0 | x
CC(C)C(=O)Nc1cccc(-c2nc3ncccc3o2)c1 | 1.6 | x
CC1=Nc2cccc3cccc(c23)N1 | 0.4 | -0.059
Cc1ccc(S(=O)(=O)c2ncsc2Cl)cc1 | -4.3 | 1.6
CN(C)c1ccc(CN(CC2CCCO2)S(=O)(=O)c2cccs2)cc1 (stereo not given) | -0.3 | x
CCCCN1C(=O)N(c2nnc(C(C)(C)C)s2)C(=O)C1c1ccc(Cl)c(Cl)c1 (stereo not given) | -0.4 | x
CC1=NCC(=O)Nc2cc3c(cc21)OCCO3 | -4.2 | 1.6
CCOc1ccc(NC(=O)c2cnn(-c3ccccc3)c2NC(=O)c2ccco2)cc1 | 1.0 | -1.4
CCC(C)SCc1nc2ccccc2[nH]1 (stereo not given) | 1.7 | x
Cc1oc(C(C)(C)C)cc1-c1cc(N)n(-c2ccc(S(N)(=O)=O)cc2)n1 | -2.1 | x
CC(CNS(=O)(=O)c1ccccc1)Sc1ncccn1 (stereo not given) | 0.1 | x
Cn1c(N)nc(O)c1/C=C1/C=Nc2ccccc21 | 1.5 | -0.23

# Other records.
smiles | BasE inh | KSHV LANA nucl
Oc1ccc2ccccc2c1C=Nc1cccn2cc(-c3ccccc3)nc12 | 37 | x
O=C1NC(=O)C(Cc2ccccc2)S1 (stereo not given) | x | -0.46
COCCn1c(SCc2csc(-c3cc(Br)ccc3OC)n2)nc2ccccc21 | 1.4 | x
O=C(CCCOc1ccccc1)OCc1cc(=O)oc2cc(O)ccc12 | 0.9 | x
O=C1CCCC2=C1Sc1ccccc1N2 | 13 | -2.7*
COc1ccc(-c2nnc(SCC(=O)OC(C)C)o2)cc1 | 0.9 | -1.3
Cc1nonc1NC(=O)C(C)Oc1ccc(F)cc1 (stereo not given) | 0.9 | 0.042
COc1ccc(CN2CN=C(Nc3nc4ccccc4o3)NC2)cc1 | 1.1 | 1.3
Cc1noc(C)c1COc1ccc(CC(=O)Nc2ccc3c(c2)OCO3)cc1 | 1.4 | x
NC(=O)CSc1nnc2c(n1)CCCC2 | -0.6 | 1.7
NC(=O)c1ccsc1NC(=O)c1cccs1 | -6.3 | -0.27
NC(=O)CSc1nc2ccccc2n1S(=O)(=O)c1ccccc1 | -1.6 | -0.3
COc1cc(C(=O)OCC(=O)c2cc3c4c(c2)CC(=O)N4CCC3)ccc1OC(F)F | -0.2 | x
CCSc1nnc(SCC(=O)c2cc(C)n(C)c2C)s1 | -1.9 | x
CC1(C)OC(=O)C(=C2SCCCS2)C(=O)O1 | -0.5 | -0.9

# An excerpt of these results, field by field:
COc1cc(C(=O)OCC(=O)c2cc3c4c(c2)CC(=O)N4CCC3)ccc1OC(F)F
  BasE inh: -0.2	KSHV LANA nucl: x
CCSc1nnc(SCC(=O)c2cc(C)n(C)c2C)s1
  BasE inh: -1.9	KSHV LANA nucl: x
NC(=O)c1ccsc1NC(=O)c1cccs1
  BasE inh: -6.3	KSHV LANA nucl: -0.27

# Screens deposited in PubChem BioAssay by ICCB-Longwood Screening Facility, Harvard Medical School.

# These rows are one share of the data; the hit share may differ from the screen's.
